Screening data from PubChem.
Vaccinia Venus: vaccinia inhibition (Venus reporter); Vaccinia virus Venus reporter expression, fluorescence; Potency, µM (series often up to 36.5 µM), without a hit: at the highest dose activity change, negative = inhibition, most hits filed as inhibitors; 330,000 tested, 0.46% active; AID 720580; active means well fitted inhibition curve with a large enough effect; inconclusive means small, poorly fitted or top-dose-only effect; inactive means no such curve, though single readings can be large or run the other way; tested in A549 cells; further: nearly all actives have a fitted effect of over 30% in size; inactives centre near -10
Vaccinia mCherry: inhibitors of vaccinia virus infection (mCherry reporter signal). 310,000 tested, 0.63% active. Potency, µM (titrated, usually from 36.5 µM), for inactives: top-dose activity change, negative = inhibition, usual class: inhibitors. Vaccinia virus mCherry reporter infection, fluorescence; about a quarter of the inactives have no number; active = well fitted inhibition curve with a large enough effect; inconclusive = small, poorly fitted or top-dose-only effect; inactive = no such curve, though single readings can be large or run the other way; tested in A549 cells; further: nearly all actives have a fitted effect of over 35% in size; inactives centre near -10
* marks the source's active call; other numbers are inactive results; [ ] = dose if it differs, or a comment. On the % scale 0 is the no-effect control and ±100 the full control effect; potency means the concentration at half of the fitted maximal effect.

Screening CC1=C(C(=O)N2CCCCCC2)CC(CC(=O)NC2CC2)C(=O)N1Cc1ccccc1 (centres undefined) returned Vaccinia Venus -6% and Vaccinia mCherry 21%.
`COc1ccccc1NC(=S)NCc1ccc(Cl)cc1` gave Vaccinia Venus -8% and Vaccinia mCherry inactive.
`Cc1ccc(Cc2c(C3CCCCC3)nc3ccc(Br)cn23)cc1` gave Vaccinia Venus 6% and Vaccinia mCherry inactive.
CCOc1ccc(OCC)c(NS(=O)(=O)c2cc(-c3cnc(C)o3)ccc2OC)c1 was read as Vaccinia Venus -21% and Vaccinia mCherry -14%.
Screening COc1ccc(-c2nsc(NC(=O)c3cccc(OC)c3)n2)cc1 returned Vaccinia Venus -1% and Vaccinia mCherry 4%.
COc1ccc(S(=O)(=O)Nc2ccc(S(=O)(=O)N(C)C)cc2)cc1[N+](=O)[O-] was read as Vaccinia Venus -6% and Vaccinia mCherry -2%.
`CN1C(C(=O)NCc2ccco2)CC2Cn3c(nc4ccccc43)C21` (centres undefined) gave Vaccinia Venus 4% and Vaccinia mCherry -10%.
`CCOC(=O)C1CCN(c2nc(C)nc3c2oc2ccccc23)CC1` gave Vaccinia Venus -17%.
Screening CC(C)=NOCC(=O)Nn1c(COc2c(C)cccc2C)nc2ccccc2c1=O returned Vaccinia Venus -6% and Vaccinia mCherry inactive.
Screening O=C1Cc2ccccc2C(c2c(Cl)cccc2Cl)N1 (centres undefined) returned Vaccinia Venus -9% and Vaccinia mCherry -17%.
For Cc1ccc(C)c(N2CCN(C(=O)c3ccc(NS(=O)(=O)c4c(C)noc4C)cc3)CC2)c1 the results were Vaccinia Venus -23% and Vaccinia mCherry inconclusive.
CCn1c(C(=O)O)c(CC(=O)Nc2ccccc2F)c2ccccc21 was read as Vaccinia Venus -11% and Vaccinia mCherry inactive.
`CCN(CC)CCNC(=O)c1nn(-c2ccc(OC)c(Cl)c2)c(=O)c2c1c1ccccc1n2C` gave Vaccinia Venus 2% and Vaccinia mCherry -3%.
For CC(NC(=S)NNS(=O)(=O)c1cccc([N+](=O)[O-])c1)c1ccccc1 (centres undefined) the results were Vaccinia Venus -3% and Vaccinia mCherry -7%.
For CCOC(=O)c1c(NC(=O)CSc2nc3cccnc3n2C)sc(C(C)=O)c1C the results were Vaccinia Venus -4% and Vaccinia mCherry -10%.

Reprinted from the part before: 2 entries, followed by the next part.
For CC(NC(=S)NNS(=O)(=O)c1cccc([N+](=O)[O-])c1)c1ccccc1 (centres undefined) the results were Vaccinia Venus -3% and Vaccinia mCherry -7%.
For CCOC(=O)c1c(NC(=O)CSc2nc3cccnc3n2C)sc(C(C)=O)c1C the results were Vaccinia Venus -4% and Vaccinia mCherry -10%.
`CCOc1cc(S(=O)(=O)NCc2ccc3c(c2)OCO3)ccc1F` gave Vaccinia Venus 1% and Vaccinia mCherry -15%.
For Cc1cc(OCC(=O)NC(Cc2c[nH]c3ccccc23)C(=O)O)ccc1Cl (centres undefined) the results were Vaccinia Venus -6% and Vaccinia mCherry -11%.
Screening COc1ccc(C2=CC(c3cc(OC)c(OC)c(OC)c3)NC(=S)N2)cc1 (centres undefined) returned Vaccinia Venus -14% and Vaccinia mCherry inconclusive.
`CC(=O)c1ccc(OCC(O)Cn2nnc3ccccc32)cc1` (centres undefined) gave Vaccinia Venus -17% and Vaccinia mCherry -26%.
Screening Cc1ccc(C(=O)NC=C(Cl)Cl)cc1 returned Vaccinia Venus -19% and Vaccinia mCherry inactive.
Screening COc1ccc(-c2noc(-c3ccc(Cl)cc3)n2)cc1 returned Vaccinia Venus -4% and Vaccinia mCherry -13%.
Screening COc1ccc(NS(=O)(=O)c2cc(NC(=O)[C@H](C)NC(N)=O)ccc2N2CCCC2)cc1 returned Vaccinia Venus -16% and Vaccinia mCherry -20%.
`CC(C)CNS(=O)(=O)c1ccc(S(=O)(=O)N2CCN(C3CCCC3)CC2)cc1` gave Vaccinia Venus -3% and Vaccinia mCherry -11%.
Screening Cc1ccccc1NC(=O)COc1ccc(S(=O)(=O)N2CCCC2)cc1C returned Vaccinia Venus -5% and Vaccinia mCherry -4%.
Screening CC(C)CC1C(=O)N(Cc2cn(CCC3OCCO3)nn2)CCS(=O)(=O)N1Cc1ccc(-c2ccc(F)nc2)cc1 (centres undefined) returned Vaccinia Venus -20% and Vaccinia mCherry -16%.
Screening Cc1cc(NC(=O)COC(=O)c2ccc(OC(F)(F)F)cc2)no1 returned Vaccinia Venus 1% and Vaccinia mCherry -8%.
For CCOC(=O)c1c(-c2ccccc2)oc2ccc(NS(=O)(=O)c3ccccc3)cc12 the results were Vaccinia Venus -3% and Vaccinia mCherry -11%.
Cc1ccc(NC(=O)N2CCN(Cc3nc4ccc(C)cc4o3)CC2)c(Cl)c1 was read as Vaccinia Venus -10% and Vaccinia mCherry -4%.
Screening CCOc1ccc(/C=C/C(=O)Nc2ccc3nc(N(CC)CC)cc(C)c3c2)cc1OC returned Vaccinia Venus -13% and Vaccinia mCherry -20%.
For CCn1cnc2c1c(=O)n(Cc1csc(-c3ccccc3)n1)c(=O)n2Cc1ccccc1 the results were Vaccinia Venus inconclusive and Vaccinia mCherry -14%.
`CC1CCN(S(=O)(=O)c2ccc3[nH]cc(C(=O)NCCN4CCOCC4)c(=O)c3c2)CC1` gave Vaccinia Venus -17% and Vaccinia mCherry -23%[1.46 µM].
COc1ccc(N(CC(=O)Nc2cc(OC)cc(OC)c2)S(=O)(=O)c2c(C)noc2C)cc1 was read as Vaccinia Venus -9% and Vaccinia mCherry -13%.
For COc1cc(C(=O)Nc2cc3c4c(c2)CC(=O)N4CCC3)cc(OC)c1OC the results were Vaccinia Venus -19% and Vaccinia mCherry inactive.
For COc1cc(NC(=O)CN2CCN(C(=O)c3ccco3)CC2)c(C)cc1[N+](=O)[O-] the results were Vaccinia Venus -5% and Vaccinia mCherry 11%.
COc1cc(C(=O)Nc2ccc(NC(=O)c3ccc(C(C)(C)C)cc3)cc2)cc(OC)c1OC was read as Vaccinia Venus -20% and Vaccinia mCherry inactive.
O=C(Cc1ncc(C(F)(F)F)cc1Cl)Nc1ccc(F)cc1 was read as Vaccinia Venus 18%.
O=[N+]([O-])c1ccc(Cl)c(S(=O)(=O)Nc2ccc(-c3ccc(N4CCCC4)nn3)cc2)c1 was read as Vaccinia Venus -30% and Vaccinia mCherry inactive.
CCOC(=O)CCNC(=O)CNC(=O)OCc1ccccc1 was read as Vaccinia Venus -3%.
Screening O=C(c1cc(COc2ccccc2)on1)N1CCCC(OCc2cccnc2)C1 (centres undefined) returned Vaccinia Venus -8% and Vaccinia mCherry -2%.
Screening CCOc1ccc(N(CC(=O)NCCc2ccccc2)C(=O)CCC(=O)Nc2cc(C)ccn2)cc1 returned Vaccinia Venus -15% and Vaccinia mCherry inactive.
`O=C(NC(=S)Nc1ccc2c(c1)OCCO2)c1cccc(Br)c1` gave Vaccinia Venus -9% and Vaccinia mCherry -23%.
Screening C#CCOCCOCCOCCNc1nc(N2CCOCC2)nc(N2CCN(C(=O)CCCCCCCCCCNC(=O)[C@H](CO)n3cc(CCCSC)nn3)CC2)n1 returned Vaccinia Venus -23% and Vaccinia mCherry -6%.
`CCOC(=O)C(=O)NCC1CCCN1S(=O)(=O)c1cccs1` (centres undefined) gave Vaccinia Venus -4% and Vaccinia mCherry inactive.
CC(C)NCC(O)COCCOc1ccc(Br)cc1 (centres undefined) was read as Vaccinia Venus -4% and Vaccinia mCherry -18%.
For COc1cc(C2OC(=O)C3C(c4ccc(OC(C)=O)c(OC)c4)OC(=O)C23)ccc1OC(C)=O (centres undefined) the results were Vaccinia Venus -3% and Vaccinia mCherry -16%.

Fetched one by one from above:
CC(C)NCC(O)COCCOc1ccc(Br)cc1 (centres undefined) was read as Vaccinia Venus -4% and Vaccinia mCherry -18%.
`CC1CCN(S(=O)(=O)c2ccc3[nH]cc(C(=O)NCCN4CCOCC4)c(=O)c3c2)CC1` gave Vaccinia Venus -17% and Vaccinia mCherry -23%[1.46 µM].

In the list so far, these contain a CF3 group.
Screening Cc1cc(NC(=O)COC(=O)c2ccc(OC(F)(F)F)cc2)no1 returned Vaccinia Venus 1% and Vaccinia mCherry -8%.
O=C(Cc1ncc(C(F)(F)F)cc1Cl)Nc1ccc(F)cc1 was read as Vaccinia Venus 18%.

(continued)
c1ccc(-c2ccc(-c3csnn3)cc2)cc1 was read as Vaccinia Venus -10%.
Screening CC(=O)Nc1ccc(C(=O)NNS(=O)(=O)c2ccc(C)cc2)cc1 returned Vaccinia Venus -6% and Vaccinia mCherry inactive.
Screening O=Cc1c(NCc2ccccc2F)c2ccccc2[nH]c1=O returned Vaccinia Venus -23% and Vaccinia mCherry -20%.
For O=C1Nc2ccccc2C12OCCCCO2 the results were Vaccinia Venus inconclusive.
Cc1ccc2c(c1)nnn2C1CCN(CC(=O)N2c3ccccc3CC2C)CC1 (centres undefined) was read as Vaccinia Venus -16% and Vaccinia mCherry -8%.
For O=C(O)CCc1ccc(-c2ccc(Br)cc2)n1CC(=O)O the results were Vaccinia Venus -3% and Vaccinia mCherry -7%.
`CN(C)C(=O)c1ccc(NC(=O)c2ccccc2Sc2ccccc2C#N)cc1` gave Vaccinia Venus -12% and Vaccinia mCherry -14%.
CCC(C(=O)N1CCN(c2ccccn2)CC1)n1nc(C)n2c(cc3occc32)c1=O (centres undefined) was read as Vaccinia Venus -16%.
Screening CCOC(=O)N1CCN(C(=O)C(CC)n2nc(C)c3sc4ccccc4c3c2=O)CC1 (centres undefined) returned Vaccinia Venus -14%.
Screening O=C(Nc1ccccc1C(=O)Nc1ccncc1)c1cccc([N+](=O)[O-])c1 returned Vaccinia Venus -15% and Vaccinia mCherry -18%.
Screening COC(=O)c1cc(-c2c[nH]c3ccccc23)n[nH]1 returned Vaccinia Venus -26%.
For Cc1ccc(S(=O)(=O)N2CCC(C(=O)C3C(=O)CCCC3=O)CC2)cc1 the results were Vaccinia Venus 6% and Vaccinia mCherry -8%.
For CCOc1cc(/C=C2\CCn3c2nc2cc(Cl)ccc2c3=O)ccc1O the results were Vaccinia Venus 1% and Vaccinia mCherry -12%.
`COc1cc(Cn2c(N)c(C#N)c3nc4ccccc4nc32)cc(OC)c1` gave Vaccinia Venus -16% and Vaccinia mCherry -15%.
`CC(C)CC1(C)NC(=O)N(CC(=O)Nc2ccc(F)c(F)c2F)C1=O` (centres undefined) gave Vaccinia Venus -3% and Vaccinia mCherry -10%.
`CC(C)Oc1ccc(CCNC(=O)C2CCC(=O)N(Cc3cccc(F)c3)C2)cc1` (centres undefined) gave Vaccinia Venus -9% and Vaccinia mCherry -14%.
COc1ccc(OCc2cc(C(=O)N3CCCC(OC)C3)no2)c2ccccc12 (centres undefined) was read as Vaccinia Venus -25% and Vaccinia mCherry -1%.
COc1ccc(CCNC(=O)CSc2ccccn2)cc1OC was read as Vaccinia Venus -8% and Vaccinia mCherry inactive.
For CN1CCc2c(C#N)c(N3CCCCC3)nc(N3CCOCC3)c2C1 the results were Vaccinia Venus 9%.
`COc1ccc(OC)c(-n2c(O)c(/C=C3\C=Nc4ccccc43)c(=O)[nH]c2=O)c1` gave Vaccinia Venus 13% and Vaccinia mCherry -13%.
For CCN(CC(=O)NCc1cccs1)C(=O)c1ccc([N+](=O)[O-])o1 the results were Vaccinia Venus -26% and Vaccinia mCherry -17%.
Screening COc1ccc(NC(=O)Nc2nnc(N3CCCC3)s2)cc1 returned Vaccinia Venus -9% and Vaccinia mCherry 1%.
For O=C1CCC[C@@H]2CC(Nc3ccccc3)C[C@@H]3CCN1[C@H]23 (some centres undefined) the results were Vaccinia Venus -7% and Vaccinia mCherry -12%.
Cc1cc(C)n(-c2nc3sc4c(c3c3nnc(SCC(N)=O)n23)CC(C)(C)OC4)n1 was read as Vaccinia Venus -16%.
Cc1ccc(SCC(=O)Nc2cc([N+](=O)[O-])ccc2O)cc1 was read as Vaccinia Venus -10% and Vaccinia mCherry -25%.
For CCC1CCCCN1S(=O)(=O)c1cc(C(=O)Nc2ccc(C)c(F)c2)ccc1F (centres undefined) the results were Vaccinia Venus inconclusive and Vaccinia mCherry inconclusive.
Screening O=C(NCCc1ccccc1)C1CCN(Cc2cccc3ccccc23)CC1 returned Vaccinia Venus -11% and Vaccinia mCherry 0%.
Screening COc1ccc(/C(C)=N/N2C(C)CCCC2C)c(OC)c1 (centres undefined) returned Vaccinia Venus -9% and Vaccinia mCherry -7%.
COCc1cc(C)n(CC(=O)Nc2cccc(C(C)=O)c2)c(=O)c1C#N was read as Vaccinia Venus 4% and Vaccinia mCherry -5%.
COCCN(C(=O)COC(=O)c1ccc(C)s1)c1c(N)n(Cc2ccccc2)c(=O)[nH]c1=O was read as Vaccinia Venus -14% and Vaccinia mCherry -18%.
Screening CC(C)(C)C(=O)NC1(C(F)(F)F)C(=O)Nc2c1c(=O)[nH]c(=O)n2Cc1ccco1 (centres undefined) returned Vaccinia Venus -5% and Vaccinia mCherry 0%.
For CCC(CC)c1nn2c(N)c(/C=C3\C(C)=Nc4ccccc43)c(=O)nc2s1 the results were Vaccinia Venus 17% and Vaccinia mCherry -20%.
For CC1(C)Cc2cccc(OCC(O)CNCc3ccccn3)c2O1 (centres undefined) the results were Vaccinia Venus -5%.
`O=C(Nc1ccccc1C(=O)O)c1cc(S(=O)(=O)N2CCOCC2)c(Br)s1` gave Vaccinia Venus -5% and Vaccinia mCherry -8%.
Screening N#CCSc1nc2ccc(N3CCOCC3)cc2c(=O)n1CCc1ccccc1 returned Vaccinia Venus -18% and Vaccinia mCherry -5%.
For COc1cc2ccc(C(C)=NOC(C)=O)cc2cc1OC the results were Vaccinia Venus -4% and Vaccinia mCherry inactive.
`O=C(CCCOc1ccccc1)NN1C(=O)NC2(CCCCC2)C1=O` gave Vaccinia Venus -4% and Vaccinia mCherry -1%.

Hits appear at their usual frequency, and some 0.82% of all compounds hit somewhere here.
